High-throughput results deposited in PubChem by ICCB-Longwood Screening Facility, Harvard Medical School.
S aureus helic: S. aureus DNA helicase inhibition | purified S. aureus helicase, fluorescence unwinding assay; about half of the hits fall short of the stated cut | inhibition, %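 (tested at about 80 µM)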 | 0.05% of 120,000 active | AID 485395;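 active means both duplicates at 50% or more, or one of them with a favoured structure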;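 further: 0% = mean of negative control wells and 100% = mean of positive control wells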
MgrA-DNA mod: S. aureus MgrA-DNA binding modulation | fluorescence polarization | inhibition, %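 (about 10 µg/mL by stock and volumes)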 | 0.13% of 84,000 active | AID 602314;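 active means above 50% in either of two replicates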;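 further: 0% = protein plus DNA without compound and 100% = DNA alone without protein; higher means less MgrA bound to DNA so lower polarization; one replicate is shown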
Active calls of the source: *; & = joins results of further samples. Some of the compounds tested. The share of hits here may be higher or lower than overall.

For c1ccc(Cc2nc(-c3ccncc3)n[nH]2)cc1 the results were S aureus helic -10 and MgrA-DNA mod 0.4.
For CC(C)(C)C(=O)Nc1ncccn1 the results were S aureus helic 1.
Screening COc1ccc(CN(CCN(C)C)c2ccccn2)cc1 returned MgrA-DNA mod -0.1&-1.1.
Screening COC(=O)c1cccnc1 returned S aureus helic 6.
Screening COc1c(O)cc2c(c1O)C1OC(CO)C(O)C(O)C1OC2=O (centres undefined) returned MgrA-DNA mod 4.0.
Screening O=C(Cn1ccnc1[N+](=O)[O-])NCCO returned MgrA-DNA mod 5.4.
`COc1ccc(C2CC(=O)C3=C(C2)NC(C)=C(C(=O)OCCc2ccccc2)C3c2ccncc2)cc1` (centres undefined) gave MgrA-DNA mod -2.4.
`CC(C)Cc1ccc(C(C)C(=O)O)cc1` (centres undefined) gave MgrA-DNA mod -0.2.
Screening CC1=NN(c2ccccc2)C(=O)C1 returned MgrA-DNA mod 1.7&-2.8.
Screening C=CCN1C(=O)C(CC(C)C)NC1=S (centres undefined) returned S aureus helic 25.
For CC(=O)NCCCCCC(=O)O the results were MgrA-DNA mod 4.7.
For CN(C)C/C=C(/c1ccc(Br)cc1)c1cccnc1 the results were MgrA-DNA mod 3.2.
Screening CN1CCC(=C2c3ccccc3CCc3sccc32)CC1 returned MgrA-DNA mod -2.7.
`CCCCNC(=O)N1CCc2cc(OC)c(OC)cc2C1c1ccccc1` (centres undefined) gave S aureus helic -2.
N=C(N=C(N)N)N1CCOCC1 was read as MgrA-DNA mod 6.2.
`CN(C)CCCN1c2ccccc2Sc2ccccc21` gave MgrA-DNA mod 3.2&-0.1.
Cc1coc2c1C(=O)C(=O)c1c-2ccc2c1CCCC2(C)C was read as MgrA-DNA mod 1.4.
For COc1ccccc1OCC(O)COC(N)=O (centres undefined) the results were MgrA-DNA mod 4.6&0.9.
For O=C(O)COC(=O)Cc1ccccc1Nc1c(Cl)cccc1Cl the results were MgrA-DNA mod 4.5.
For CCOC(=O)c1ccc2nc(C(F)(F)F)nc(NCc3ccc(Cl)cc3)c2c1 the results were S aureus helic 8 and MgrA-DNA mod 1.5.

Structures listed so far containing a COOH group, in the order listed:
`CC(C)Cc1ccc(C(C)C(=O)O)cc1` (centres undefined) gave MgrA-DNA mod -0.2.
For CC(=O)NCCCCCC(=O)O the results were MgrA-DNA mod 4.7.
For O=C(O)COC(=O)Cc1ccccc1Nc1c(Cl)cccc1Cl the results were MgrA-DNA mod 4.5.

Additional records:
`CCC[C@H](N[C@@H](C)C(=O)N1[C@H](C(=O)O)C[C@@H]2CCCC[C@@H]21)C(=O)OCC` gave MgrA-DNA mod -0.7.
`Nc1nccs1` gave MgrA-DNA mod 3.5.
COc1ccc(-c2cc(=O)c3c(O)cc(O[C@@H]4O[C@H](CO[C@H]5O[C@H](C)[C@@H](O)[C@H](O)[C@@H]5O)[C@@H](O)[C@H](O)[C@H]4O)cc3o2)cc1O was read as MgrA-DNA mod 1.7.
`Cc1nnc(NS(=O)(=O)c2ccc(N)cc2)s1` gave MgrA-DNA mod 0.2&2.4.
`O=C1NCC2(CCN(CCc3ccccc3)CC2)O1` gave MgrA-DNA mod -1.5&5.3.
`COc1cc2nc(N3CCN(C(=O)C4COc5ccccc5O4)CC3)nc(N)c2cc1OC` (centres undefined) gave S aureus helic 8 and MgrA-DNA mod -3.6.
For COc1nc(C)nc(Cl)c1NC1=NCCN1 the results were MgrA-DNA mod 0.2.
Screening C1=NC(Cc2cccc3ccccc23)NC1 (centres undefined) returned S aureus helic 1 and MgrA-DNA mod -1.6.
For NS(=O)(=O)c1cc2c(cc1C(F)(F)F)NC(Cc1ccccc1)NS2(=O)=O (centres undefined) the results were MgrA-DNA mod -1.2&2.0.
CCCOc1ccccc1-c1nc2n[nH]nc2c(=O)[nH]1 was read as MgrA-DNA mod 3.6&3.6&2.9.
`O=C(O)CCC/C=C\C[C@H]1C(=O)C[C@@H](O)[C@@H]1/C=C/[C@@H](O)CCc1ccccc1` gave MgrA-DNA mod 1.6.
`C[C@]12CC[C@H]3[C@@H](CCC4=CC(=O)CC[C@@]43C)[C@@H]1CC[C@@H]2C(=O)CO` gave MgrA-DNA mod 2.0.
`Nc1cc(-c2ccncc2)c[nH]c1=O` gave MgrA-DNA mod 2.3.
Screening O=C(O)CN1C(=O)c2cccc3cccc(c23)C1=O returned MgrA-DNA mod -1.2.
For O=C(O)[C@@H]1[C@H]2C[C@H]3c4[nH]c5ccccc5c4CCN3C[C@@H]2CC[C@@H]1O the results were MgrA-DNA mod -1.2.
CC(C)Cc1ccc([C@H](C)C(=O)O)cc1 was read as MgrA-DNA mod -1.1.
Cc1onc(-c2ccccc2Cl)c1C(=O)N[C@@H]1C(=O)N2[C@@H]1SC(C)(C)[C@@H]2C(=O)O was read as MgrA-DNA mod 0.8&4.7.
`COc1cc(N)c(Cl)cc1C(=O)NC1CCN(CCCOc2ccc(F)cc2)CC1OC` (centres undefined) gave MgrA-DNA mod -0.6.
`c1ccc2c(CC3=NCCN3)cccc2c1` gave S aureus helic 46 and MgrA-DNA mod 1.6&2.5&3.0.
C[C@H]1COc2c(N3CCN(C)CC3)c(F)cc3c(=O)c(C(=O)O)cn1c23 was read as MgrA-DNA mod 3.9.
For CC(=O)[C@H]1CC[C@H]2[C@@H]3C[C@H](C)C4=CC(=O)CC[C@]4(C)[C@H]3[C@@H](O)C[C@]12C the results were MgrA-DNA mod 2.3.

Ordered by molecular weight (low to high): 3 of the compounds above.
Screening COC(=O)c1cccnc1 returned S aureus helic 6.
Screening C=CCN1C(=O)C(CC(C)C)NC1=S (centres undefined) returned S aureus helic 25.
`CCCCNC(=O)N1CCc2cc(OC)c(OC)cc2C1c1ccccc1` (centres undefined) gave S aureus helic -2.

An excerpt taken from the entries so far, for reference:
`CCC[C@H](N[C@@H](C)C(=O)N1[C@H](C(=O)O)C[C@@H]2CCCC[C@@H]21)C(=O)OCC` gave MgrA-DNA mod -0.7.
`Nc1nccs1` gave MgrA-DNA mod 3.5.

Random excerpt: 5 compounds from above, in no set order.
For O=C(O)[C@@H]1[C@H]2C[C@H]3c4[nH]c5ccccc5c4CCN3C[C@@H]2CC[C@@H]1O the results were MgrA-DNA mod -1.2.
`CCC[C@H](N[C@@H](C)C(=O)N1[C@H](C(=O)O)C[C@@H]2CCCC[C@@H]21)C(=O)OCC` gave MgrA-DNA mod -0.7.
Screening C1=NC(Cc2cccc3ccccc23)NC1 (centres undefined) returned S aureus helic 1 and MgrA-DNA mod -1.6.
`Nc1nccs1` gave MgrA-DNA mod 3.5.
`C[C@]12CC[C@H]3[C@@H](CCC4=CC(=O)CC[C@@]43C)[C@@H]1CC[C@@H]2C(=O)CO` gave MgrA-DNA mod 2.0.
